# AID504770: growth inhibition of E. coli YBA685, primary screen, V. cholerae RctB inhibitors; 130,000 compounds, 0.27% hits; E. coli YBA685 rctB-dependent plasmid, OD600 growth, 3 h; stronger effect = lower value; AID 504770, 2011; z-score (no concentration beside the values);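 active = z-score under -2 on both plates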;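 note: wells of about 30 µL received 100 nL stock; score is relative to mean and SD of the test wells; the first replicate is given; strong numbers were not always called active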
# Ba CapD inh: Bacillus anthracis CapD inhibitors, primary screen, biochemical, fluorescence intensity. 140,000 compounds, 0.23% hits. z-score (no concentration beside the values). purified CapD enzyme, fluorescence intensity read-out; stronger effect = lower value; some hits fall short of the stated cut;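 active = z-score under -4 in either of two replicates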;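 note: stock transfer was 100 nL into about 40 µL; score is relative to mean and spread of the plate; one replicate is shown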
# Starred values were filed as active, the others as inactive; · = not tested or not shown.
entry	mol	AID504770	Ba CapD inh
1	COc1cc(CNCCc2c[nH]c3ccccc23)cc(OC)c1O	1.05	-0.35
2	O=C(COc1ccc2ccccc2c1)Oc1ccc(C(=O)c2ccccc2)cc1	0.55	1.73
3	O=C(O)Cc1ccc(S(=O)(=O)N2CCOCC2)s1	-0.6	·
4	C[C@@H]1CC2C3C[C@H](F)C4=CC(=O)C=C[C@]4(C)[C@@]3(F)[C@@H](O)C[C@]2(C)[C@@]1(O)C(=O)CO (stereo not given in full)	·	-0.34
5	O=C(N1CCCCC1)N1c2ccccc2Sc2ccccc21	1.25	14
6	COc1ccccc1-c1cc(-c2ccc(O)cc2)nc(N)c1C#N	-0.35	·
7	CN1C(=O)CC(C(=O)O)SC1=Nc1cccc(F)c1 (stereo not given)	1	0.02
8	CCOc1csc2nc(C)cc(C)c12	-0.65	-0.675
9	CC(=O)Oc1ccccc1OC(C)c1nn(C(C)=O)c2ccccc12 (stereo not given)	-0.7	-0.135
10	C[C@]12C=C(C#N)C[C@@]1(C)C=C(C#N)C2	0.1	0.215
11	COc1ccc(-c2cn3c4c(=O)n(C)c(=O)n(C)c4nc3n2-c2ccc(OC)c(OC)c2)cc1	·	-0.295
12	COc1ccc(C(=O)NCc2nnc(SCC(=O)N3N=C(c4cccs4)CC3c3ccc(F)cc3)n2C)cc1OC (stereo not given)	·	21.8
13	COCCCn1c(=N)c(C(=O)N2CCCCC2)cc2c(=O)n3cccc(C)c3nc21	0.55	23.3
14	COC(=O)C1=C(C)OC(N)=C(C(=O)OC(C)C)C12C(=O)Nc1ccccc12 (stereo not given)	·	0.1
15	CC1(c2ccccc2)CC(C)(C)N(C(=O)C(F)(F)F)c2ccccc21 (stereo not given)	-0.05	-0.445
16	CCOC(=O)C(=CNNS(=O)(=O)c1cc(C(F)(F)F)cc(C(F)(F)F)c1)C(=O)OCC	·	-1.24
17	Cc1ccc(C2C(N3C(=O)c4ccc([N+](=O)[O-])cc4C3=O)C(=O)N2c2ccc(C)c(F)c2)cc1 (stereo not given)	·	-0.26
18	COc1ccc(C2C(C(=O)NC3CCCCC3)c3ccccc3C(=O)N2c2ccc(OC)cc2)cc1 (stereo not given)	·	14.1
19	O=C(CSC1=NCCN1)NC(c1ccccc1)c1ccccc1	-0.15	-0.53
20	O=C(Nc1nc(CSc2nc3ccccc3s2)cs1)C1CC1	-0.65	·
21	CC(CC(=O)C1C(C)C=CCC1(C)C)Nc1ccccc1 (stereo not given)	-0.15	0.69
22	COc1ccc(OC)c(/C=c2\sc3nc4ccccc4n3c2=O)c1	-0.1	0.49
23	O=C(N/N=C/c1ccc(Br)c(Br)c1)C1CC1c1ccccc1 (stereo not given)	·	-0.415
24	O=S(=O)(/C=C/c1ccccc1)N1CCN(Cc2cc3c(cc2O)CCC3)CC1	0.2	·
25	N#Cc1c(N)nc(SCC(=O)C23CC4CC(CC(C4)C2)C3)c(C#N)c1-c1cccs1	·	0.13
26	CCOC(=O)c1c(C)oc2c1c1c(c3ccccc32)OCN(C2CC(C)(C)NC(C)(C)C2)C1	-0.65	-0.335
27	Brc1ccc(-n2cc(-c3ccccc3)c3c(NCc4cccnc4)ncnc32)cc1	·	-0.145
28	COc1ccc(CCn2c(=S)[nH]c3cc(C(=O)NCc4ccccn4)ccc3c2=O)cc1OC	·	-1.22
29	N#CC1=C(N)Oc2c(oc(CO)cc2=O)C12C(=O)NC1C=CC=CC12 (stereo not given)	1.15	·
30	N#Cc1c(Sc2nnnn2-c2ccccc2)nc(CCc2ccccc2)c2c1CCCC2	0.05	·
31	OC(CC#CCN1CCCC1)(c1ccccc1)C1CCCC1 (stereo not given)	-0.35	0.175
32	Cc1nn(C(C)(C)C)c(OC(=O)c2ccccc2)c1Sc1ccccc1	·	-0.29
33	CCOC(=O)C1CCCN(C(=O)c2ccc(OC)c(OC)c2)C1 (stereo not given)	1.05	1.31
34	CC(C)(Cc1nc2ccccc2[nH]1)C(=O)O	0.2	14.6
35	CC(Cc1cccs1)NC(=O)NC1CCCCC1 (stereo not given)	-2.85	·
36	C/C(=C\c1ccc(C#N)cc1)[N+](=O)[O-]	·	0.965

# Compounds 1 to 5, quoted:
entry	mol	AID504770	Ba CapD inh
1	COc1cc(CNCCc2c[nH]c3ccccc23)cc(OC)c1O	1.05	-0.35
2	O=C(COc1ccc2ccccc2c1)Oc1ccc(C(=O)c2ccccc2)cc1	0.55	1.73
3	O=C(O)Cc1ccc(S(=O)(=O)N2CCOCC2)s1	-0.6	·
4	C[C@@H]1CC2C3C[C@H](F)C4=CC(=O)C=C[C@]4(C)[C@@]3(F)[C@@H](O)C[C@]2(C)[C@@]1(O)C(=O)CO (stereo not given in full)	·	-0.34
5	O=C(N1CCCCC1)N1c2ccccc2Sc2ccccc21	1.25	14

# The results go on:
entry	mol	AID504770	Ba CapD inh
37	CCOC(=O)c1cnn(-c2nc3ccccc3s2)c1/N=C/N(C)C	0.3	·
38	CC(C)CSc1ncnc2scc(-c3ccccc3)c12	-0.7	0.02
39	COC(=O)c1nnn(-c2ccc(F)c(Cl)c2)c1C(=O)OC	·	0.205
40	CC(NC(=O)CC1Sc2ccccc2NC1=O)c1ccccc1 (stereo not given)	1.75	-1.07
41	Cc1cc(C(=O)COc2ccc3ccc(=O)oc3c2)c(C)n1C	0.6	·
42	COc1cccc(CCOC(=O)NC(Cc2ccccc2)C(=O)OCc2ccccc2)c1 (stereo not given)	·	-0.34
43	Cc1onc(-c2ccccc2Cl)c1C(=O)N1C=CC(C(F)(F)F)=NCC1	·	-1.05
44	Nc1ccc(Cl)cc1C(=O)NCCc1ccc(Cl)cc1	0	92.1
45	Cc1cc(C)n(-c2ncccc2[N+](=O)[O-])n1	·	0.04
46	COc1ccc(NC(=S)Nc2ccccn2)cc1	·	0.585
47	O=c1n(-c2ccccc2)c(=O)n(Cc2ccccn2)n1Cc1ccccn1	0.25	0.28
48	CCc1nnc2c(N(C)C3CCCCC3)nc3ccccc3n12	-1.4	0.57
49	CSc1cccc(NC(=O)C2CCN(S(=O)(=O)c3c(C)n[nH]c3C)CC2)c1	-0.7	0.35
50	Cc1n[nH]c(C)c1C(C)C(=O)N1CCN(c2ccccn2)CC1 (stereo not given)	-0.85	10.5
51	O=C(NNC(=O)C1CC1)c1cnn(-c2ccc([N+](=O)[O-])cc2)c1C(F)(F)F	·	-0.34
52	COc1cccc(NC(=O)c2cc(=O)c3ccccc3o2)c1	1.35	0.415
53	CCCCC/C=C/CC1CC(=O)N(C2CCN(Cc3ccc4c(c3)c3ccccc3n4CC)C2)C1=O (stereo not given)	·	20
54	c1ccc2c(c1)ncn2CCn1cnc2ccccc21	0.2	·
55	c1ccc(-c2cn(-c3ccccc3)c3ncnc(NCCCN4CCOCC4)c23)cc1	-0.15	0.26
56	COc1cc2c(cc1OC)C(=NC(Cc1ccccc1)C(=O)O)NC(C)(C)C2 (stereo not given)	·	20.7
57	CCOC(=O)C(C)Sc1nc(C)cc(C)c1C#N (stereo not given)	-0.45	-0.93
58	COC(=O)C(C)N1C(=O)S/C(=C/c2cc(C)n(-c3ccc4c(c3)OCO4)c2C)C1=O (stereo not given)	-0.45	-0.4
59	OC(COc1ccc(Cl)c(Cl)c1)CN1CCC(Nc2nccc(C(F)(F)F)n2)CC1 (stereo not given)	-0.05	0.46
60	CS(=O)(=O)c1cc(C#N)c(N2CCN(C(=O)CCC(=O)NCc3ccncc3)CC2)nc1-c1ccccc1	·	0.245
61	O=C(O)c1ccccc1-c1ccc(/C=N/N2C(=O)C3C4C=CC(C4)C3C2=O)o1 (stereo not given)	-0.8	-0.295
62	CCNc1nc2[nH]c(=O)c3c(c2s1)OC(N)=C(C#N)C3c1ccc(C)cc1 (stereo not given)	-0.6	0.82
63	O=C1C2ON(c3ccccc3)C(c3ccncc3)C2C(=O)N1c1cccc(C(F)(F)F)c1 (stereo not given)	-0.45	-0.55
64	O=C(CSc1nnc2sc3ccccc3n12)N1CCc2ccccc2C1	0.25	0.59
65	Cc1ccc(CN(C2CCCC2)S(=O)(=O)c2ccc(S(=O)(=O)N3CCCC(C)C3)cc2)o1 (stereo not given)	0	·
66	COc1ccc(NC(=O)C2(N(C(=O)c3ccc(-n4cnnn4)cc3)c3ccc(OC)cc3)CCCCC2)cc1	-0.55	-0.655
67	Cc1csc(SCC(=O)O)n1	-0.35	·
68	N#Cc1c(-c2ccccc2)cc(-c2ccccc2)n(N)c1=O	·	5.32
69	C(=C\c1ccccc1)/CSc1nc2ccccc2[nH]1	0.3	11.9
70	CCOc1ccc(C(=O)NC)c(OCC)c1	-0.7	0.81
71	Cc1cccc(NC2=NC(=S)N(c3ccccc3)C23CCCCC3)c1	·	-0.295
72	COc1ccc2nc(NC(=O)CCCCl)sc2c1	-0.95	-0.915
73	COc1ccccc1C(=O)N1CCN(c2ccccc2)CC1	·	-0.525
74	COc1ccc2c(CCNC(=O)OCC#Cc3ccccc3)c[nH]c2c1	·	0.775
75	Cc1nn(-c2ccc(F)cc2)c(Cl)c1/C=N/NC(=O)C1CC1	0	·
76	COc1cc(OC)nc(OC(Cc2ccncn2)c2ccccc2)n1 (stereo not given)	·	-0.245
77	CCn1c(=O)cc(SCC(=O)NCc2ccccn2)c2ccccc21	0.15	10.1
78	CCC(=O)Nc1ccc(S(=O)(=O)NC(C)(C)C)cc1	-1.15	-0.02
79	O=C(c1ccc(C#Cc2ccccc2)o1)N1CCCCC1	-0.25	-0.42
80	COc1ccccc1NS(=O)(=O)c1ccc2oc(SCC(=O)NC(N)=O)nc2c1	-0.25	·
81	CCOC(=O)c1cn(CC(=O)NN)nc1C(F)(F)F	0.25	-0.015
82	O=C(Cn1ccc(=O)[nH]c1=O)NC1CCCCCC1	-0.7	·
83	Cc1cc(C)n(-c2ccc(C(=O)NC(C)c3ccc(S(N)(=O)=O)cc3)cc2)n1 (stereo not given)	-0.75	·
84	CCCCC(C(=O)N1CCOCC1)N1C(=O)C2C3c4ccccc4C(c4ccccc43)C2C1=O (stereo not given)	·	0.025
85	Fc1cccc(F)c1CSc1nc2ccccc2[nH]1	-0.9	·
86	CCNC(=O)N1CCC(c2nc(C3(c4ccc(Cl)cc4Cl)CC3)no2)CC1	·	-0.33
87	CCOC(=O)C1=C(C)N(c2ccc(F)cc2)C(=O)C1CC(=O)Nc1ccc(C(=O)OCC)cc1 (stereo not given)	·	0.595
88	O=C(NCc1ccccc1)Nc1ccccc1	-1.15	-0.625
89	Cc1cc(C)n(-c2ccc(C(=O)O)cc2)n1	-0.85	0.57
90	Cc1cc(C)n(CC(O)COc2ccccc2C(=O)Nc2ccccc2)n1 (stereo not given)	1.45	-0.14
91	COCCNc1nc(SCC(=O)NCc2ccccc2)nc2ccccc12	·	0.695
92	O=C(c1cccnc1)N1N=C(C(F)(F)F)CC1(O)c1cccnc1 (stereo not given)	-0.2	·
93	CCOC(=O)c1oc2ccc(Br)cc2c1COC(=O)c1cccnc1Cl	-1.2	·
94	CC(C)c1nnc(NC(=O)c2ccc(-c3ccccc3)cc2)s1	-0.2	0.54
95	CCCN1C(=S)NC2c3ccccc3OC1(C)C2C (stereo not given)	-1.2	0.27
96	CC/C(O)=C1/C(=O)CC(C)(C)CC1=Nc1cccc2ccccc12	0	0.175

# More results
entry	mol	AID504770	Ba CapD inh
97	COc1ccc(-n2nc3c(c2NC(=O)c2ccc(S(=O)(=O)N4CCCCC4)cc2)CSC3)cc1	·	-0.125
98	Cc1ccc(S(=O)(=O)Oc2ccc(OCc3ccccc3)cc2)cc1	·	0.61
99	OCCSc1ncnc2sccc12	-0.05	·
100	CCOc1ccc2c(c1)=C(c1sc(=S)n(Cc3ccc(OC)cc3)c1O)C(=O)N=2	·	0.05
101	N#Cc1c(Cl)cccc1Oc1ccc(S(=O)(=O)N2CCN(c3ccncc3)CC2)cc1	·	-0.72
102	CC(C)(C)OC(=O)Nc1ncnc2c1ncn2C1OC(CO)C2OC(C)(C)OC21 (stereo not given)	-1.05	0.265
103	O=c1c2cccc3c2c(nn1-c1ccccc1)-c1ccccc1-3	·	0.47
104	O=C(NCCc1c[nH]c2ccc(O)cc12)OCc1ccccc1Cc1ccccc1	·	-0.49
105	O=C(C1=C(O)/C(=C/c2cccc(O)c2)CCC1)C(F)(F)F	0.95	-2.67
106	Fc1ccc(Cc2nn[nH]n2)c(Cl)c1	-0.15	0.26
107	Cc1ccc(NC(C)C(=O)N/N=C/c2cccnc2)cc1 (stereo not given)	-0.2	0.245
108	CCN(CC)C(=O)n1nnc2ccccc21	0.55	0.215

# Pulled by structure from the list above (six):
entry	mol	AID504770	Ba CapD inh
84	CCCCC(C(=O)N1CCOCC1)N1C(=O)C2C3c4ccccc4C(c4ccccc43)C2C1=O (stereo not given)	·	0.025
12	COc1ccc(C(=O)NCc2nnc(SCC(=O)N3N=C(c4cccs4)CC3c3ccc(F)cc3)n2C)cc1OC (stereo not given)	·	21.8
38	CC(C)CSc1ncnc2scc(-c3ccccc3)c12	-0.7	0.02
20	O=C(Nc1nc(CSc2nc3ccccc3s2)cs1)C1CC1	-0.65	·
42	COc1cccc(CCOC(=O)NC(Cc2ccccc2)C(=O)OCc2ccccc2)c1 (stereo not given)	·	-0.34
22	COc1ccc(OC)c(/C=c2\sc3nc4ccccc4n3c2=O)c1	-0.1	0.49

# (listing goes on)
entry	mol	AID504770	Ba CapD inh
109	c1ccc(C(c2ccccc2)N2CCC2)cc1	-0.1	-0.44
110	Cc1ccc(C)c(SCc2nc3ccccc3c(=O)n2-c2ccccc2)c1	·	-0.635
111	CC(=O)N1CCN(c2ncc(Cl)cc2Cl)CC1	-0.15	·
112	O=S(=O)(NCCc1ccccc1)c1cccc(S(=O)(=O)N2CCOCC2)c1	-0.2	·
113	CCOc1ccc(/C=C2/SC(=S)N(CCC(=O)N3CCC(Cc4ccccc4)CC3)C2=O)cc1	·	-0.2
114	Cc1cc(C)cc(NC(=O)N(CCC(=O)O)Cc2ccccc2)c1	2.45	-1.21
115	CCCC1CCc2c(sc(NC(=O)c3c(-c4c(Cl)cccc4Cl)noc3C)c2C(N)=O)C1 (stereo not given)	·	-0.25
116	CN(C(=O)c1ccco1)c1ccccc1C(=O)NCc1ccccc1	-1.15	0.45
